miR-21 reporter: raises the signal of a miR-21 reporter; HeLa miR-21 FLuc reporter, luciferase, 48 h; Potency, µM (series often up to 38.3 µM), inactives show top-dose reporter change, positive = more light; 340,000 tested, under 10 active; active = well fitted rising curve with a large enough effect; inconclusive = small, poorly fitted or top-dose-only effect; inactive = no such curve, though single readings can be large or run the other way;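 note: % of control where 0% means no effect; miR-21 action dims this reporter so a rising signal means less miR-21 action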
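HeLa miR-21-FLuc reporter line, endogenous miR-21; 2000 cells/well in DMEM/10% FBS; compound titration up to ~40uM final, 48 h, 37 degree Celsius; luciferase detection reagent, 15 min lysis, CCD luminescence.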
GLA inh pH 4.5: blocks human alpha-galactosidase A at pH 4.5 | P06280 | purified enzyme, 4-MU-alpha-Gal fluorescence, pH 4.5 | activity change, negative = inhibition, % at 105 µM | 230,000 tested, under 10 active | AID 1467; inconclusive = small, poorly fitted or top-dose-only inhibition, or a rising curve; inactive = flat fitted curve, though single readings scatter; no compound was filed as active;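 note: 0% = full activity with enzyme and -100% = basal without enzyme; dose as in the result columns while the protocol names 77 µM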
Rango-impB inh: prevents formation of the Rango-importin beta complex; Rango CFP/YFP FRET sensor + importin beta, 45 min; Potency, µM (highest dose often 92.2 µM), for the others: at the top dose inhibition of complex formation; 340,000 tested, 0.031% active; active = rising FRET ratio curve, often small or poorly fitted; inconclusive = mostly compound fluorescence or quenching in the first reads; inactive = flat curves in all reads;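 note: potency is the fitted concentration of half-maximal effect; 0% = DMSO wells and 100% = buffer wells lacking importin beta; nearly all actives have a fitted effect of over 15% in size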
Target sequence (Q14974 whole entry, looked up): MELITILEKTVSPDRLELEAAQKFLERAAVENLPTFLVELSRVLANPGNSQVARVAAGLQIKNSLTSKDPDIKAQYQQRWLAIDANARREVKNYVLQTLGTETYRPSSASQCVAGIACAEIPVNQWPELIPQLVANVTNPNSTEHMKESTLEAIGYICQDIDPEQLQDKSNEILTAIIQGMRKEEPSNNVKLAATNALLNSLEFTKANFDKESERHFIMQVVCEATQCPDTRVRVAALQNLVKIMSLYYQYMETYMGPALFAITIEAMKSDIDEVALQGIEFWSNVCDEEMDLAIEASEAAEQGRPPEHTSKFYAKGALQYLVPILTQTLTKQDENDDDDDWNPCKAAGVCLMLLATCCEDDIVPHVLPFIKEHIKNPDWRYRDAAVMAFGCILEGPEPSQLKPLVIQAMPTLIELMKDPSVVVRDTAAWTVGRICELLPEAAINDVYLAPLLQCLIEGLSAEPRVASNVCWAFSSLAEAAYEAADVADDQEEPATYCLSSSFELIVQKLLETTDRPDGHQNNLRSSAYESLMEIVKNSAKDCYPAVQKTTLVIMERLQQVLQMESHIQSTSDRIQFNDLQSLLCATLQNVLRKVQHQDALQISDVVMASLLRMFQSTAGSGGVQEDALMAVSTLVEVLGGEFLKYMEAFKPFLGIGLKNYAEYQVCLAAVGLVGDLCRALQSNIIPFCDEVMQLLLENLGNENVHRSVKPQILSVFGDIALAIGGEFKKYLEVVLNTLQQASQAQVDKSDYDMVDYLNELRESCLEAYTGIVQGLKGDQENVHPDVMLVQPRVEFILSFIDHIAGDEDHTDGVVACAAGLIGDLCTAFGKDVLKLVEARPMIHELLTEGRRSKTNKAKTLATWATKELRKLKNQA
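FRET biosensor (snurportin 1 IBB flanked by EYFP and cerulean), 50 nM, with compound 5 min, then 0.125 microM importin beta in PBS, 1 mM DTT, 0.02% Tween-20, 0.1% BSA. CFP/YFP ratio read after 45 min at room temperature; pre-read flags interference.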
Rango release inh: inhibitors of RanGTP-induced Rango-importin beta complex dissociation | O95149+P62826 | Biochemical FRET Rango-importin beta, RanGTP-induced dissociation | Potency, µM (titrated, usually from 46.1 µM), for the others: at the top dose activity change, negative = inhibition | 340,000 tested, 0.071% active | AID 540253; active means falling FRET ratio curve, often poorly fitted, with flat reads before Ran was added; inconclusive means other falling curves, or compound fluorescence or quenching; inactive means flat or rising ratio curve;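 note: potency is the fitted concentration of half-maximal effect; % of control where 0% means no effect; nearly all actives have a fitted effect of over 45% in size; -100% = wells without RanGTP and RCC1; the record marks most hits as doubtful in a second field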
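Compounds sat 5 min at room temperature with 0.1 uM Rango biosensor plus 0.25 uM importin beta, then FRET pre-read. RanGTP-RCC1 (0.6 uM Ran, 2mM GTP, 0.2 uM RCC1) added for 45 min, and the CFP/YFP post-read measured blocked complex dissociation.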
* hit, by the source's call; ? = inconclusive; nt = no result given; & = joins results of further samples.

miR-21 reporter	GLA inh pH 4.5	Rango-impB inh	Rango release inh	SMILES
-30%	-1	?	9%	COc1ccc(N(CC(=O)Nc2ccc3c(c2)OCCO3)S(C)(=O)=O)c(OC)c1
-21%	-1	0.7%	0%	CN(C)c1ccc(/C=N/NC(=O)c2ccccc2Cl)cc1
-3%	nt	-0.4%	20%	O=C(O)CC1(CC(=O)NCc2ccc(F)cc2)CCCCC1
nt	nt	0.8%	17%	O=C1CC2(CCCCCC2)Oc2ccccc21
1%	-13	-3.3%	21%	CCCn1c(Sc2nc3c(c(=O)[nH]c(=O)n3C)n2CCC)nc2c1c(=O)[nH]c(=O)n2C
11%	-8	-1.0%	-7%	Cc1cc2cc(CNC(=S)NC3CCCCC3)ccc2[nH]1
nt	nt	0.0%	-3%	O=C(C[C@H]1C[C@H](C(=O)N2CCCCC2)[C@@]2(CCc3ccccc3)c3[nH]c4ccc(Cl)cc4c3CCN2C1=O)NCc1ccco1
-4%	-5	-0.2%	0%	O=C(c1cc(S(=O)(=O)N2CCC3(CC2)OCCO3)ccc1F)N1CCCCC1
-6%	nt	-0.3%	-3%	COc1ccc(OCC(=O)Nc2ccc3c(c2)nc(CCN2CCN(C)CC2)n3C)cc1
nt	nt	0.3%	-7%	COc1cc2c(cc1CNC[C@H]1O[C@@H](n3cnc(C(N)=O)n3)[C@H](O)[C@@H]1O)OCO2
0%	-2	-1.4%	-7%	O=S(=O)(c1ccc2ccccc2c1)N1C=CC(C(F)(F)F)=NCC1
1%	-11	2.9%	0%	COc1ccccc1C(=O)Oc1cc(C)[nH]c(=O)c1[N+](=O)[O-]
-1%	0	2.6%	-3%	CC(=O)Nc1c(O)nc(SC/C=C/CSc2nc(O)c(NC(C)=O)c(=O)[nH]2)[nH]c1=O
-48%	nt	-4.6%	3%	Cc1ccc(-c2n[nH]c(Cc3ccccc3)n2)cc1
nt	nt	-3.3%	1%	Cc1cccc(C(=O)N[C@@H](C)C(=O)N2CCN(c3ncccn3)CC2)c1
0%	-1	-1.0%	26%	Cc1cnc([N+](=O)[O-])n1CCOC(=O)NC(=O)c1c(F)cccc1F
-34%	-7	4.0%	4%	CCOC(=O)Cc1c(C)nc2c(-c3ccc(Cl)cc3)cnn2c1C
-20%	8	1.7%	3%	CC(/C=N/n1cnnc1)=C\c1ccccc1
1%	-4	0.0%	12%	O=C(CN1CCSC1=NCc1ccccc1)c1ccccc1
nt	nt	1.7%	1%	c1ccc2c(c1)c1cccc3ccc4cccc2c4c31
-4%	nt	6.4%	17%	CCCn1c(C2CCCN2c2nc(-c3cccc(Br)c3)cs2)nc2ccccc21 (stereo unspecified)
nt	nt	4.8%	0%	COc1ccccc1NC(=O)CSc1nnc2ccc(-c3ccccn3)nn12
-6%	6	6.9%	-27%	COc1ccccc1-n1c(SCC(=O)N2CCOCC2)nc2cccnc21
-6%	11	8.1%	-9%	CSc1nccc(-c2sc(SC)c(C#N)c2-c2ccccc2)n1
4%	-5	?	?	CCCN1C(=O)/C(=C/c2ccc(N3CCOCC3)cc2)NC1=S
-6%	-8	-1.9%	25%	COC(=O)c1ccc(NC(=S)Nc2ccc(O)cc2)cc1
0%	6	1.0%	5%	S=C1NCCOCCOCCNC(=S)N2CCOCCOCCN1CCOCCOCC2
5%	-5	-2.1%	1%	C[C@@H](C(=O)Nc1ccc2ccccc2c1)[C@@H]1C[C@@]1(C)[C@@H](NC(=O)OCc1ccccc1)c1ccccc1
nt	nt	-5.9%	0%	Cc1cc(OCC(=O)NCCCN2CCOCC2)cc(C)c1Cl
19%	nt	-1.6%	-6%	Cc1ccc(NS(=O)(=O)c2ccc(-c3cnc(C4CC4)o3)cc2)c(C)c1
nt	nt	-0.3%	3%	Cc1cccc(Nc2nnc(SCC(=O)NCC3CCCO3)s2)c1C (stereo unspecified)
nt	nt	3.7%	6%	COc1cccc(NC(=O)c2ccc(N3C(=O)C4CC=CCC4C3=O)cc2)c1 (stereo unspecified)
-6%	8	6.9%	1%	CCCCN1C(=O)C(NC(=O)CC(C)C)(C(F)(F)F)C2=C1CC(C)(C)CC2=O (stereo unspecified)
-8%	nt	0.3%	-13%	Cc1ccc(NC(=O)CNC(=O)Cn2cnc3sc(C)c(C)c3c2=O)cc1F
-2%	-11	-0.4%	0%	O=C(NCc1ccccc1)c1cccnc1N1CCOCC1
13%	-10	-1.6%	8%	O=C(N/N=C/c1cccc2nccnc12)c1ccccc1O
-1%	-6	-1.3%	0%	O=C(NCCN1CCOCC1)c1cc2ccccc2o1
0%	-2	-1.9%	-10%	CCSC1=C(C#N)C(c2ccc3c(c2)OCO3)C2=C(CCCC2=O)N1 (stereo unspecified)
nt	nt	-1.8%	4%	O=C(CN1C(=O)NC2(CCCc3ccccc32)C1=O)NCc1cccs1 (stereo unspecified)
-55%	2	?	-26%	COC(=O)CN1C(=O)S/C(=C/c2cc(C)n(C)c2C)C1=O

Single records, from the list above:
CCCCN1C(=O)C(NC(=O)CC(C)C)(C(F)(F)F)C2=C1CC(C)(C)CC2=O (stereo unspecified) across the screens: miR-21 reporter = -6%; GLA inh pH 4.5 = 8; Rango-impB inh = 6.9%; Rango release inh = 1%
O=C(CN1C(=O)NC2(CCCc3ccccc32)C1=O)NCc1cccs1 (stereo unspecified) across the screens: miR-21 reporter = nt; GLA inh pH 4.5 = nt; Rango-impB inh = -1.8%; Rango release inh = 4%
COC(=O)CN1C(=O)S/C(=C/c2cc(C)n(C)c2C)C1=O across the screens: miR-21 reporter = -55%; GLA inh pH 4.5 = 2; Rango-impB inh = ?; Rango release inh = -26%

Next results.
miR-21 reporter	GLA inh pH 4.5	Rango-impB inh	Rango release inh	SMILES
-1%	8	3.8%	5%	CC(Sc1nc2ccccc2[nH]1)C(=O)O (stereo unspecified)
nt	nt	3.4%	21%	COCCNc1nnc(SCC(=O)NNC(=O)c2ccc([N+](=O)[O-])cc2)s1
nt	nt	-4.0%	-14%	Cc1n[nH]c(=O)c2c(NC(=O)CSc3ccccc3Cl)oc(C)c12
-6%	3	-3.4%	12%	COCCCNC(=O)CSc1nc2c(sc3ccccc32)c(=O)n1CCCC(=O)NCC1CCCO1 (stereo unspecified)
14%	9	-1.1%	0%	Cc1ccc2nc(-c3ccncc3)cc(C(=O)Nc3ccc(OC(F)F)cc3)c2c1
-12%	5	1.8%	-17%	O=C1C2C3C=CC(C4CC34)C2C(=O)N1/N=C/c1ccc(-c2ccc(F)cc2[N+](=O)[O-])o1 (stereo unspecified)
-8%	nt	-0.3%	2%	O=[N+]([O-])c1cc(/C=N\Nc2ccccn2)ccc1Cl
-8%	-5	-3.5%	0%	O=C(CN1CC(c2ccccc2)CC1=O)OCc1ccccc1F (stereo unspecified)
-16%	-22	-5.7%	-7%	CCOC(=O)/C(=N/Nc1ccc(Cl)cc1)S(=O)(=O)c1ccccc1
-49%	4	3.7%	-16%	Cc1cccc(-c2ncc(S(=O)(=O)C(C)(C)C)c(N)n2)c1
4%	-3	5.0%	-6%	C=CCOC(=O)C1=C(C)NC(C)=C(C(=O)OCC=C)C1c1cccs1
1%	1	0.1%	2%	Cc1c(N=Cc2cc3c(cc2Cl)OCO3)c(=O)n(-c2ccccc2)n1C
-12%	2	-3.4%	-19%	CCOC(=O)c1sc(NC(=O)CSc2n[nH]c(C)n2)nc1C
-25%	-6	0.2%	11%	O=C(Cc1ccccc1)Nc1ccccc1Oc1ccccc1
1%	4	-5.0%	-3%	O=C(NC1CCCCCCC1)C1c2ccccc2C(=O)N1Cc1cccs1 (stereo unspecified)
-2%	nt	2.2%	7%	Cc1ccc(NC(=O)CSc2nc3ccc(Nc4nc(N5CCOCC5)nc(N5CCOCC5)n4)cc3s2)cc1
nt	nt	-0.8%	-8%	CC1CC1C(=O)OCC(=O)NNC(=O)COc1ccc(Br)cc1 (stereo unspecified)
nt	nt	0.9%	-2%	Cc1cccc(C(C)C)c1NC(=O)COC(=O)CN1C(=O)C2CC=CCC2C1=O (stereo unspecified)
nt	nt	-2.2%	17%	CC(=O)NCc1ccc(C(=O)CSc2nnc(C3CC3)n2C2CC2)cc1
3%	-13	0.6%	1%	CCCCCCCN(C(=O)CCl)c1cccc(C)c1
-9%	-2	1.1%	3%	CCOc1ccc(C(C)NC(=O)Cc2ccccc2)cc1OCC (stereo unspecified)
-1%	-2	?	-3%	Cc1cc(C)c2c(=O)n(CC(=O)N3CCC(N4CCCCC4)CC3)sc2n1
0%	nt	2.9%	-8%	CCOc1ccc(C(=O)N2CCN(c3ccccn3)CC2)cc1
nt	nt	0.0%	-13%	Cc1sc2nc(CN3CCOCC3)nc(NS(=O)(=O)c3cc(Cl)ccc3Cl)c2c1C
-3%	-3	-3.3%	17%	CCC1(C)Cc2c(sc3nc4n(c(=O)c23)CCS4)CO1 (stereo unspecified)
-1%	nt	-0.3%	15%	Cc1nn(C(C)C(=O)NCCCN2CCCC2)c(=O)c2nn(-c3ccccc3)c(C)c12 (stereo unspecified)
-9%	10	2.4%	-13%	COc1ccc(-n2cc(CNCCc3cnc[nH]3)c(-c3cccc(F)c3)n2)cc1
-18%	2	-0.1%	1%	CCOc1ccc(N=C(NC#N)SCC)cc1
21%	-18	3.4%	8%	Cc1ccc(C2(CCNS(=O)(=O)c3ccc(C)cc3)CCOC(C(C)C)C2)cc1 (stereo unspecified)
nt	nt	1.8%	12%	Cc1cc(C)c(S(=O)(=O)N2CCCCC2CCNC(=O)C(=O)NCc2ccco2)c(C)c1 (stereo unspecified)
-22%	-3	4.9%	-5%	CC(C)C1S/C(=N/N=C/c2cccs2)NC1=O (stereo unspecified)
-10%	6	0.9%	19%	Cc1nnc(SCc2nc3ccccc3nc2C)s1
0%	4	1.5%	-9%	Cc1cc(=O)n2[nH]c(C(=O)O)nc2n1
-6%	-11	-0.9%	8%	CC(C)Cc1nc2oc3c(NCC4CCCO4)ncnc3c2c2c1CCC2 (stereo unspecified)
9%	1	-0.3%	-9%	Fc1ccc(-c2csc3ncnc(N4CCc5ccccc5C4)c23)cc1
nt	-6&1	-1.0%	9%	O=C1C(=O)c2ccccc2C(O)=C1C1CCC(c2ccc(Cl)cc2)CC1 (stereo unspecified)
-2%	nt	?	0%	Cc1ccc2[nH]c3c(c2c1)CCN(C)C3
-2%	-1	-1.2%	-11%	O=S(=O)(Nc1nc2ccccc2nc1NCC1CCCO1)c1ccccc1 (stereo unspecified)
-3%	2	5.4%	1%	O=C(CSc1ncnc2nc[nH]c12)Nc1ccccc1C(F)(F)F
4%	nt	1.0%	-8%	CCCCN(C)CCNC(=O)c1cc2c(-c3ccccc3F)nn(C)c2s1
nt	nt	?	21µM*	COc1cccc2sc3cc(NCc4ccc5c(c4)OCO5)ccc3c(=O)c12
nt	nt	-2.0%	20%	O=C1CCc2cc(S(=O)(=O)Nc3ccccc3F)cc3c2N1CCC3
nt	nt	0.2%	-12%	CC(C)CCN(C(=O)c1ccncc1)c1c(N)n(Cc2ccccc2)c(=O)[nH]c1=O
-12%	2	-0.7%	13%	COCCNC(=O)COc1cccc(Oc2ccccc2)c1
-11%	-8	1.1%	-9%	Cc1ccc(CNCc2cc3c(C(C)(C)C)nn(-c4ccccc4)c3[nH]c2=O)cc1
-4%	-20	0.0%	-14%	CC1CN(c2ccc(S(=O)(=O)N3CCCC3)cn2)CC(C)O1 (stereo unspecified)
-37%	-6	0.0%	12%	Cc1cccc(/C=N/n2c(-c3cc(-c4ccccc4)n[nH]3)n[nH]c2=S)c1
4%	-5	-0.9%	0%	O=C(CNC(=O)C(c1ccccc1)c1ccccc1)N/N=C/c1cccnc1
-2%	nt	0.2%	-12%	Cc1c(C)c2ccc(OCC(=O)NC3CCN(Cc4ccccc4)CC3)cc2oc1=O
nt	nt	-3.4%	0%	O=C(NC1CCN(Cc2ccc(Cl)cc2)CC1)c1cn(-c2ccccc2)nc1-c1cccnc1
-3%	nt	?	-7%	Cc1cccc(C(=O)NNC(=O)c2ccc(S(=O)(=O)N3CCOCC3)cc2)c1
0%	nt	-0.2%	15%	CCN1C(=O)c2ccc(C(=O)Nc3ccc(O)cc3C)cc2C1=O

Assay outcomes from PubChem.

A portion of the library (hit frequency here may not be typical).
